NPYLR7 agonist – agonists of mosquito NPYLR7 receptor, primary screen, cell-based, Aedes aegypti, calcium fluorescence, mosquito biting behavior. HEK293T NPYLR7/Galpha15, GCaMP6s calcium fluorescence. activation, % at 10 µM. 270,000 compounds, 0.15% hits. AID 1259423, 2018; in the data active = activation above about 40%;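 also: 0% = vehicle and 100% = reference agonist at the receptor; some compounds past the cut are filed as inactive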
NPYLR7 agonist max-min – further read-out of NPYLR7 agonist, marked with its call; activation, %; measured here: Max-Min RFU normalised activation; some inactives read as strong as hits;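 span of the calcium signal over five minutes; 0% = vehicle and 100% = native peptide agonist; compound fluorescence can raise it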
* marks the source's active call; other numbers are inactive results; & = joins results of further samples.

SMILES	NPYLR7 agonist	NPYLR7 agonist max-min
O=C(CCc1ccccc1)N1N=C2CCCCC2C1(O)C(F)(F)F (stereo unspecified)	0	-2
CC1CC(Sc2nnc(-c3ccccc3F)o2)C(=O)O1 (stereo unspecified)	9	6
Cc1cc(OC(=O)c2ccc(C(F)(F)F)cc2)c([N+](=O)[O-])c(=O)[nH]1	2	1
O=C(COc1ccc2c3c(c(=O)oc2c1)CCC3)N1CCCC(C(F)(F)F)C1 (stereo unspecified)	4	2
Fc1ccc(-c2cc3c(SCc4ccccc4)nccn3n2)cc1	3	2
CC(C)N(Cc1cccc(OS(=O)(=O)c2cccc(C(F)(F)F)c2)c1)C(=O)c1ccc2ccccc2c1	-11	-14
CC1CCC2(CC1)NC(=O)N(NC(=O)COc1ccccc1)C2=O (stereo unspecified)	0	-3
CCC(=O)Nc1ccc(SCC(=O)N2CCN(c3ccccc3)CC2)nn1	7	-3
CC(Oc1ccccc1)C(=O)N1CCN(CC(OCc2ccc(C(F)(F)F)cc2)c2ccc(Cl)cc2)CC1 (stereo unspecified)	3	0
COc1ccc2c(c1)OC(c1ccccc1)(C(F)(F)F)NC2=O (stereo unspecified)	0	-2
CN(C)c1ccc(NC(=O)c2ccco2)cc1CN(CC1CCCO1)C(=O)NC(C)(C)C (stereo unspecified)	4	16
COCCN(CC1CCN(Cc2ccccc2F)CC1)C(=O)C1CCCC1	11	3
CCOc1ccccc1NC(=O)C(=O)NCC(c1ccc(N(C)C)cc1)N1CCc2ccccc21 (stereo unspecified)	11	6
CC(C)Cc1cc(CN2CCCC(C(=O)c3ccc(C(F)(F)F)cc3)C2)[nH]n1 (stereo unspecified)	4	-2
COc1ccc(NC(=O)C(C2CCCC2)N2CCN(C(=O)C3CCC3)CC2)cc1 (stereo unspecified)	-4	2

Ordered by length of the SMILES (high to low): some entries from above.
SMILES	NPYLR7 agonist	NPYLR7 agonist max-min
CCOc1ccccc1NC(=O)C(=O)NCC(c1ccc(N(C)C)cc1)N1CCc2ccccc21 (stereo unspecified)	11	6
COCCN(CC1CCN(Cc2ccccc2F)CC1)C(=O)C1CCCC1	11	3
Fc1ccc(-c2cc3c(SCc4ccccc4)nccn3n2)cc1	3	2

Other structures:
SMILES	NPYLR7 agonist	NPYLR7 agonist max-min
CCCCNC(=O)NS(=O)(=O)c1cnccc1Sc1ccc(Cl)cc1	1	3
CN(CCCc1cnn(C)c1)C(=O)c1cccnc1	-15	-12
CN(CC1CCC1)C(=O)NCC(C)(C)N1CCC(N(C)C)CC1	0	1
COc1ccccc1-c1cc(C(=O)N2CCN(c3cccc(C(F)(F)F)c3)CC2)nc2cc(-c3ccc(Cl)cc3)nn12	-9&18	-6&25
Cc1ccc(CN(Cc2ccc(F)cc2)C(=O)CN(CC2CCCO2)C(=O)CCc2ccccc2)s1 (stereo unspecified)	5	11
C=CCc1c(C)nc2c(-c3ccccc3)cnn2c1NCCN1CCOCC1	2	8
Cc1ccc(-c2nc3cc(C)ccn3c2NC(=O)CCCCl)cc1	-2	6
Cc1nn(-c2ccccc2)c2c1P(=S)(N1CCCC1)C(=C1N(C)c3ccccc3C1(C)C)C=N2 (stereo unspecified)	9	15
Cc1ccc(I)c(C)c1[N+](=O)[O-]	-4	-7
COc1ccc(-n2nc(-c3ccc(OC)cc3OC)cc2C(=O)Nc2ccc(F)cc2)cc1	-3	9
O=[N+]([O-])c1cccc(C2c3cccn3CCCN2Cc2cccc(F)c2F)c1 (stereo unspecified)	-8	4
Cc1ccc2c(c1)C1OCCC1C1N2C(=O)C2C(C(=O)O)C3C=CC21O3 (stereo unspecified)	5	5
Cc1nc(C(C)NC(=O)Nc2cc(-c3nnco3)ccc2C)cs1 (stereo unspecified)	-3	-6
COCCN(CC(=O)N(Cc1ccc(F)cc1)Cc1ccc(C)s1)C(=O)C1CC1	-5	6
CC1CN(S(=O)(=O)c2cccc3cnccc23)CCN1 (stereo unspecified)	4	-20

Record cards (already shown). Order of screens: NPYLR7 agonist | NPYLR7 agonist max-min
COc1ccc(-n2nc(-c3ccc(OC)cc3OC)cc2C(=O)Nc2ccc(F)cc2)cc1 as listed: -3 | 9
C=CCc1c(C)nc2c(-c3ccccc3)cnn2c1NCCN1CCOCC1 as listed: 2 | 8
CN(CCCc1cnn(C)c1)C(=O)c1cccnc1 as listed: -15 | -12
CC1CN(S(=O)(=O)c2cccc3cnccc23)CCN1 (stereo unspecified) as listed: 4 | -20
Cc1ccc2c(c1)C1OCCC1C1N2C(=O)C2C(C(=O)O)C3C=CC21O3 (stereo unspecified) as listed: 5 | 5

Next part.
SMILES	NPYLR7 agonist	NPYLR7 agonist max-min
CCOC(=O)N1CCC(NCCOc2ccccc2F)CC1	-1	4
CSc1ccc(-c2ccc3c(c2)CC(CNC(=O)c2cc(C)n(C)n2)O3)cc1 (stereo unspecified)	21	9
Cc1nc(C(NC(=O)c2ccc(Cl)cc2Cl)C(C)C)n[nH]1 (stereo unspecified)	-2	-2
CN(Cc1nc2ccccc2s1)C(=O)C1CCCN1c1nccs1 (stereo unspecified)	9	5
O=C(CNC(=O)c1cccs1)Nc1cc(Cl)cc(Cl)c1	4	3
Cc1nc(C(=O)Nc2c(F)cccc2F)nn1-c1ccc(Cl)cc1	0	17
Nc1nc(N2CCCCC2)[nH]c(=O)c1C(=S)Nc1ccccc1	1	0
CNS(=O)(=O)Cc1ccc(CNc2ccc(C(F)(F)F)cn2)cc1	10	5
O=C(Nc1ccccc1)c1cc2n(n1)CCN(C(=O)Cc1ccccc1O)C2	8	5
CN1CCN(c2onc(-c3ccc(F)cc3)c2CN(Cc2ccco2)C(=O)c2ccc(F)cc2)CC1	-4	-2
O=C(NCc1nnnn1C1CCCCC1)c1cccs1	9	7
Cc1cc(-c2nc3ccccc3o2)ccc1NC(=O)c1ccccc1C	22	27
Cc1cccnc1CN1CCN(Cc2cnn3cccnc23)CC1	-1	-2
Cc1ncc(C(=O)Nc2ncnc3oc(C)c(C)c23)s1	4	2
CC(=O)c1cc(F)c(N2CCN(C(=O)c3ccccc3F)CC2)cc1C	0	-1
CNC(=O)NC(=O)COC(=O)CN1C(=O)C2CCCCC2C1=O (stereo unspecified)	-5	-10
O=C(c1ccccc1C(F)(F)F)N1CCN(C(c2ccc(F)cc2)c2ccc(F)cc2)CC1	15	1
CSc1ccc(CN(C(=O)CC2CCOCC2)C2CC2)cc1	-2	-3
CCCCCCc1ccc(C(=O)Nc2ccc(N3CCCCC3)c(C(=O)NC(C)c3ccccc3)c2)cc1 (stereo unspecified)	4	18
Cc1ccc(S(=O)(=O)NNC(=O)c2csc(N3CCOCC3)n2)c(C)c1	-5	14
COC(=O)c1cc(-c2ccc(/C=C3/NC(=S)NC3=O)o2)ccc1Cl	1	10
Cc1nc(N(C)CCCN2CCCCCC2)c2cnn(C)c2n1	2	2
CC1=C(C(=O)N(C)C)C(c2ccc(C)s2)NC(=S)N1 (stereo unspecified)	7	3
COC(=O)/C(C#N)=N/Nc1cccc(Cl)c1C	-3	-3
COCCOC(=O)N1C2CCC3(CC2)OC(=O)N(Cc2ccccc2)CC13 (stereo unspecified)	27	31
CCCSCCCNC(=O)C(C)Nc1nn2c(=O)cc(C)nc2s1 (stereo unspecified)	4	1
O=C(NCc1ccccn1)c1cccc(CSc2nc(-c3ccccc3)cc(N3CCN(Cc4ccc5c(c4)OCO5)CC3)n2)c1	3	15
O=S(=O)(c1ccc2nc[nH]c2c1)c1ccc2nc[nH]c2c1	2	-2
CCc1cc(Oc2ccc(C)cc2C)nc(SCc2cccc([N+](=O)[O-])c2)n1	1	6
NNC(=O)C1CC1c1ccc(Cl)cc1 (stereo unspecified)	-2	-7
Fc1ccc(COc2cccc3c(=S)[nH]ccc23)cc1	4	2
Cc1ccccc1CN1CCC(CNC(=O)CC2=CCNCC2)C1 (stereo unspecified)	17	9
Cc1cc(C)c(S(=O)(=O)N2CCCC2C(=O)NC2CCSc3ccccc32)c(C)c1 (stereo unspecified)	4	2
COc1cccc(-c2nc(OC)nn2-c2cccc(NC(=O)c3ccc(F)cc3)c2)c1	-4	-4
O=C(C(Cc1ccc(O)cc1)c1ccccc1)N1CCn2cncc2C1 (stereo unspecified)	10	5
COCCN(CC(=O)N1CCc2sccc2C1COc1cccc(OC)c1)S(=O)(=O)c1ccc(Cl)cc1 (stereo unspecified)	-1	0
c1coc(-c2cc(CSc3nnc(Cc4cccs4)n3C3CC3)no2)c1	0	21
CN(C)c1ccc(C2NC(c3ccc(N(C)C)cc3)C([N+](=O)[O-])C(C)(C)C2[N+](=O)[O-])cc1 (stereo unspecified)	4	1
CCc1nc2n(n1)C(=O)C(C(c1ccc(F)c(F)c1)N1CCC3(CC1)OCCO3)S2 (stereo unspecified)	-2	-9
COc1cccc(NC(=O)N2CCN(CCCOC(c3ccc(Cl)cc3)c3ccc(Cl)cc3)CC2)c1	-2	4
CCCCC(=O)N(CCCN1CCOCC1)CC(=O)N(Cc1ccccc1)Cc1ccco1	0	2
O=C(c1cc2n(n1)CCN(Cc1c(Cl)cccc1Cl)C2=O)N1CCN(C/C=C/c2ccccc2)CC1	8	23
O=C(NCc1cccnc1)C(C1CCCC1)N1CCN(C(=O)c2cccc(C(F)(F)F)c2)CC1 (stereo unspecified)	5	11
O=C(c1nc2ccccc2s1)N(CCCN1CCOCC1)c1nc2ccc(Cl)cc2s1	-3	-6
Cc1cccc(NC(=O)NCCC2CCCCN2S(=O)(=O)c2ccc(F)cc2)c1 (stereo unspecified)	9	2

A second format for part of the listing above:
> CCCCC(=O)N(CCCN1CCOCC1)CC(=O)N(Cc1ccccc1)Cc1ccco1
- NPYLR7 agonist = 0
- NPYLR7 agonist max-min = 2
> O=C(c1cc2n(n1)CCN(Cc1c(Cl)cccc1Cl)C2=O)N1CCN(C/C=C/c2ccccc2)CC1
- NPYLR7 agonist = 8
- NPYLR7 agonist max-min = 23

Another view of 4 compounds above.
The line under a structure holds: NPYLR7 agonist, NPYLR7 agonist max-min
CCc1cc(Oc2ccc(C)cc2C)nc(SCc2cccc([N+](=O)[O-])c2)n1
  1, 6
NNC(=O)C1CC1c1ccc(Cl)cc1 (stereo unspecified)
  -2, -7
Fc1ccc(COc2cccc3c(=S)[nH]ccc23)cc1
  4, 2
Cc1ccccc1CN1CCC(CNC(=O)CC2=CCNCC2)C1 (stereo unspecified)
  17, 9

Continuation:
SMILES	NPYLR7 agonist	NPYLR7 agonist max-min
Cn1c(=NC(=O)C2=COCCO2)sc2cc(Br)ccc21	7	2
CCc1ccc(C(=O)O)cc1S(=O)(=O)Nc1cc(F)c(F)cc1F	10	-4
COc1cccc(COC(CN2CCN(C(=O)Nc3ccc(C#N)cc3)CC2)c2ccc(Cl)cc2)c1 (stereo unspecified)	0	11
O=C(NNC(=O)c1cccn(Cc2cccc(F)c2)c1=O)Nc1cccs1	-1	-4
O=C(Nc1nccs1)c1ccc(Br)cc1	-4	-10
C#CCOCC(O)CN(Cc1ccco1)Cc1c(-c2ccccc2)nn(C)c1Oc1ccc(OC)cc1 (stereo unspecified)	8	11
Nc1cc(S(=O)(=O)N2CCOCC2)ccc1Cl	2	4
CCn1c(C)c(C(C)=O)c2cc(OCC(O)CNC3CCCCC3)ccc21 (stereo unspecified)	-4	-4
COCCN1CCN(C(=O)Cn2nnnc2CN(C)C(C)C)CC1	8	0
Cc1cccc(C(=O)N2C(C(=O)O)COC23CCN(C(=O)C2CC2)CC3)c1 (stereo unspecified)	-9	-10
Cn1ccnc1C(NC(=O)Cc1ccc(Cl)c(Cl)c1)c1ccccc1F (stereo unspecified)	1	8
Cc1nc(SCc2cc(=O)n3ccsc3n2)nc(C)c1C	4	9
C=CCNCc1cccc(Oc2ncccn2)c1	-18	-24
Cc1ccc(F)c(S(=O)(=O)Nc2cccc(-c3ccn[nH]3)c2)c1	4	-1
CCc1sc(C(=O)NNC(=O)C(C)(C)C)cc1C	14	11
CCOC(=O)N1CCN(C(=O)CC2C(=O)NCCN2Cc2ccccc2C)CC1 (stereo unspecified)	15	11
CCCCC(CC)C(=O)N1CCC2(CC1)SCCN2C(=O)COc1ccc(Cl)cc1 (stereo unspecified)	20	16
Cc1nc(NC2CCCCC2)c2sc3nc4c(cc3c2n1)COC(C)(C)C4	15	5
COc1cccc(-n2c(=O)[nH]c3c(C(N)=O)nc(-c4ccco4)nc32)c1	14	4
Cc1ccc(Cl)cc1NC(=O)CC(NCCCOC(C)C)C(=O)O (stereo unspecified)	2	2
O=C(c1ccc(Cl)cc1)C1CCN(C(=O)NC2CCCCNC2=O)CC1 (stereo unspecified)	0	-1
Cc1cc2nc(-c3cccs3)cc(C(F)(F)F)n2n1	5	2
C=CCCC(O)CN(CC)CC(=O)N1CCc2sccc2C1COc1ccccc1OC (stereo unspecified)	16	15
COc1cc(C=C2C(=O)N(C)c3ccccc32)ccc1O	0	-1
O=C(c1ccccc1-c1ncn[nH]1)N1CCC(CO)(Cc2ccccc2)CC1	5	4
Cc1ccccc1SCC(=O)N1CCC2(CC1)c1ccccc1[C@@H](N)[C@@H]2O	12	8
CCC1CCCCN1Cc1cnc(S(=O)(=O)C(C)C)n1CCc1ccccc1 (stereo unspecified)	3	1
Fc1ccc(-c2csc3ncnc(N4CCN(C5CCCC5)CC4)c23)cc1	10	6
CN(CC(=O)NC(C)(C)C)C(=O)CSc1nc2ccccc2o1	13	8
Cc1ccc(Cc2nc(N3CCN(C(=O)NC4CCCCC4)CC3)c3c(-c4cccnc4)noc3n2)cc1	9	-2
CC(=O)Nc1ccc(Cl)c(C(=O)NCCSc2ncn[nH]2)c1	28	17
NC(=O)c1ccc(-n2cnnc2)cc1N1CCCC1	1	0
COCCCNC(=O)c1cc(NC(=O)c2cccc(Br)c2)ccc1N1CCCCC1	12	19
Cc1cccnc1CN1C[C@H]2OC(=O)N(CCc3cccc(Cl)c3)[C@H]2C1	9	2
COC(=O)c1ccc(Cn2c(=O)n(CCc3ccc(OC)c(OC)c3)c(=O)c3ncccc32)o1	3	3
COc1ccc(CCN(C)C(=O)c2ccc(C)c([N+](=O)[O-])c2)cc1OC	-6	-12
Cc1ccc(-c2c(C)nn3c(NCCCn4ccnc4)cc(C)nc23)cc1	5	7

Compound activity from PubChem BioAssay.

These rows are one share of the data; count on the stated rates, not on these rows.
